CHRM5 antagonist – CHRM5 antagonism in calcium assay; P08912; CHO-hM5 cells, Fluo-8 calcium fluorescence, ACh EC80; inhibition, % at 3 µM; hit rate 0.59% among 360,000;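 active = inhibition above a per-plate cutoff, the mean of that plate's test compounds plus 3 SD, cut at about 27% in these data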;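 note: 0% = acetylcholine EC80 with DMSO and 100% = DMSO without agonist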
Target sequence (P08912 whole entry, looked up): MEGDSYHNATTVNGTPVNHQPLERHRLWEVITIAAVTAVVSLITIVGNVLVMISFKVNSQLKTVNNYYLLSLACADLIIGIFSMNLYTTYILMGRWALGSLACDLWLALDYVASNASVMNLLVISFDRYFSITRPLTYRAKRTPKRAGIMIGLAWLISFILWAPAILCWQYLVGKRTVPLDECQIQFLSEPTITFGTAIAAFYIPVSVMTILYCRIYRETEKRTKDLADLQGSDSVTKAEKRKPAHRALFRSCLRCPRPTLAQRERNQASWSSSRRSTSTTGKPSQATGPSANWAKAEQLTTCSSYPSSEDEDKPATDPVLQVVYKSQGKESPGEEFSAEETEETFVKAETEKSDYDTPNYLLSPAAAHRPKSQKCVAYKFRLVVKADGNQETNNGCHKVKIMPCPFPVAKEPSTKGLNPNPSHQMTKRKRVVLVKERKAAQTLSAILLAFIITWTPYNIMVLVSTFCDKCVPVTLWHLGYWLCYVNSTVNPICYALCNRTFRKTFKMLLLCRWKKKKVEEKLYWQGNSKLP
CRFR2-BP antag – blocks CRF-induced signaling of the CRF-BP/CRF-R2 complex; HEK293 CRF-R2/CRF-BP, CRF-induced calcium fluorescence; inhibition, % at 11.8 µM; hit rate 0.59% among 350,000;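 active = inhibition of the ligand-induced calcium signal above about 50% at the single tested concentration, limit read from the data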
M5 PAM – positive allosteric modulators of human muscarinic M5 receptor; P08912; CHO-K1 hM5, Fluo-8 calcium, ACh EC20 PAM; 0% = ACh EC20, 100% = ACh EC100; activation, % at 3 µM; hit rate 0.3% among 360,000; AID 624038;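 active = activation above the run cutoff, the mean activation of all test compounds plus 3 SD, cut at about 18% in these data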
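Assay system: CHO-K1 hM5 cells / Incubation: Fluo-8 loading 80 min at 37 °C plus 30 min room temperature / Technique: Fluo-8 calcium dye fluorescence, kinetic read / Repeats: single replicate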
CHRM5 agonist – agonists of human muscarinic M5 receptor (CHRM5); P08912; CHO-K1 hM5 cells, Fluo-8 calcium fluorescence; 0% DMSO wells, 100% maximal acetylcholine response; activation, % at 3 µM; hit rate 0.19% among 360,000; AID 624037;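 active = activation above the run's mean over test compounds plus 3 SD, cut at about 23% in these data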;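 note: signal is peak over basal fluorescence ratio across the kinetic read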
TAAR1 antagonist – antagonists of human TAAR1; Q96RJ0; AID 624466; CHO RD-HGA16 TAAR1, Fluo-8 calcium fluorescence, antagonist; inhibition, % at 3 µM; hit rate 1.5% among 360,000;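 active = inhibition above a per-plate cutoff, the mean inhibition of test compounds on that plate plus 3 SD, cut at about 49% in these data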;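 note: 0% = DMSO plus EC80 beta-PEA response and 100% = DMSO alone without agonist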
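System: CHO RD-HGA16 cells bearing hTAAR1. Reagent: EC80 β-phenethylamine stimulus. Schedule: seeding 17-24 h prior, 75-min 37 °C, 30-min RT dye loading. Signal: Fluo-8 intracellular calcium dye fluorescence, real-time kinetic reads. Read-out: % inhibition from peak post-agonist over basal fluorescence ratio. Benchmarks: vehicle wells and EC80 agonist wells. Replicates: n of 1.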
* hit, by the source's call; & = joins results of further samples. The list is partial; count on the stated rates, not on these rows.

SMILES	CHRM5 antagonist	CRFR2-BP antag	M5 PAM	CHRM5 agonist	TAAR1 antagonist
O=C(NC(CO)C(O)c1ccc([N+](=O)[O-])cc1)C(Cl)Cl (stereo unspecified)	-5	-11	-1	1	-10
NCCCC[C@H](N[C@@H](CCc1ccccc1)C(=O)O)C(=O)N1CCC[C@H]1C(=O)O	3&3	32&12	1&1	2&-4	-21&-2
COc1ccccc1OCC(O)CO (stereo unspecified)	4	16	-1	1	11
O=C1O[C@H]([C@@H](O)CO)C(O)=C1O	-5	10	-20	70*	-17
CC12CCC3c4ccc(O)cc4CCC3C1CCC2=O (stereo unspecified)	2	13	-9	5	20
CCOC(=O)C1=C(COCCN)NC(C)=C(C(=O)OC)C1c1ccccc1Cl (stereo unspecified)	-4&1&5	-2&-21&-9	2&-4&0	7&13&4	6&-6&24
CC(C(=O)O)c1cccc(C(=O)c2ccccc2)c1 (stereo unspecified)	4	22	-3	0	3
CC(=O)OCC(=O)[C@@]1(O)CC[C@H]2[C@@H]3CCC4=CC(=O)CC[C@]4(C)[C@H]3C(=O)C[C@@]21C	1	24	-6	-1	-9
CC1(C)[C@H](C(=O)O)N2C(=O)C[C@H]2S1(=O)=O	3	3	-2	2	0
CCOc1ccc(NC(C)=O)cc1	-5	-13	2	1	-19
O=C1O[C@@H]([C@H](O)CO)C(O)=C1O	-8	-14	0	0	-1
CCc1cccc2c3c([nH]c12)C(CC)(CC(=O)O)OCC3 (stereo unspecified)	-6	5	4	0	-12
O=C(O)[C@@H](O)[C@H](O)C(=O)O	-7	12	11	1	-7

9 neighbouring compounds already listed:
SMILES	CHRM5 antagonist	CRFR2-BP antag	M5 PAM	CHRM5 agonist	TAAR1 antagonist
O=C(NC(CO)C(O)c1ccc([N+](=O)[O-])cc1)C(Cl)Cl (stereo unspecified)	-5	-11	-1	1	-10
NCCCC[C@H](N[C@@H](CCc1ccccc1)C(=O)O)C(=O)N1CCC[C@H]1C(=O)O	3&3	32&12	1&1	2&-4	-21&-2
COc1ccccc1OCC(O)CO (stereo unspecified)	4	16	-1	1	11
O=C1O[C@H]([C@@H](O)CO)C(O)=C1O	-5	10	-20	70*	-17
CC12CCC3c4ccc(O)cc4CCC3C1CCC2=O (stereo unspecified)	2	13	-9	5	20
CCOC(=O)C1=C(COCCN)NC(C)=C(C(=O)OC)C1c1ccccc1Cl (stereo unspecified)	-4&1&5	-2&-21&-9	2&-4&0	7&13&4	6&-6&24
CC(C(=O)O)c1cccc(C(=O)c2ccccc2)c1 (stereo unspecified)	4	22	-3	0	3
CC(=O)OCC(=O)[C@@]1(O)CC[C@H]2[C@@H]3CCC4=CC(=O)CC[C@]4(C)[C@H]3C(=O)C[C@@]21C	1	24	-6	-1	-9
CC1(C)[C@H](C(=O)O)N2C(=O)C[C@H]2S1(=O)=O	3	3	-2	2	0
